From PubChem
Six1-Eya2 inh – qHTS Assay for Inhibitors of the Six1/Eya2 Interaction; hit rate 0.56% among 360,000; Homeobox protein SIX1 (Homo sapiens) + Protein phosphatase EYA2 (Homo sapiens), …; AID 651725, 2012; activity change, % (concentration not given with the values); AlphaScreen GST-Six1/His-Eya2 binding, biochemical; active compounds read low; control for the full effect not named in the record; in the data active = activity change below about -65%; inconclusive = about -30% to -65%; inactive = above about -30%; also: % is scaled to controls: 0 for no effect and ±100 for the full control effect
Target sequence (O00167 whole entry, looked up): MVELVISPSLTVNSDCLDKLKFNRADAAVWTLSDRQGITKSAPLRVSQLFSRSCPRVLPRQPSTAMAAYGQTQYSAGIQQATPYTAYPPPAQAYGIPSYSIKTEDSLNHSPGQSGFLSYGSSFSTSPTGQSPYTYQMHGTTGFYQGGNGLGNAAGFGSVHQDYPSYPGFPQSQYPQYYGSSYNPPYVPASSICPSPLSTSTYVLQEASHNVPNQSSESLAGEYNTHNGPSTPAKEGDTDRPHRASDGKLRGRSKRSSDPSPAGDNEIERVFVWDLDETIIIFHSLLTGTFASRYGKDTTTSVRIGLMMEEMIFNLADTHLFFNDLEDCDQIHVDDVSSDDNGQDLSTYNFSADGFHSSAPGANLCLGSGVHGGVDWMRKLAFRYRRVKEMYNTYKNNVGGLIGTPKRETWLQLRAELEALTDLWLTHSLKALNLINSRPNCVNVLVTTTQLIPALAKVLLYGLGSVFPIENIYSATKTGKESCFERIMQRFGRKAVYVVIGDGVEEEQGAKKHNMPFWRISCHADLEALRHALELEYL
Target sequence (Q15475 whole entry, looked up): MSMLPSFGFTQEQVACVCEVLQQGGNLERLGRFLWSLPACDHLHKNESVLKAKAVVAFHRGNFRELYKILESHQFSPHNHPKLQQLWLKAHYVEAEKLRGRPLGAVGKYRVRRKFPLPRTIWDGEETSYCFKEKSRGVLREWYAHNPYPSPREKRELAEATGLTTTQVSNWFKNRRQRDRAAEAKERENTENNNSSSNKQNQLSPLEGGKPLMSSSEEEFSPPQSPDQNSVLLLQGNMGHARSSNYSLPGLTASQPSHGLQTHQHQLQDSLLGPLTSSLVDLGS
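Compounds are tested against tagged Six1 and Eya2 proteins bridged by glutathione donor and nickel acceptor beads; after a one-hour incubation at 37 °C without light, AlphaScreen emission is recorded.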
TRPML1 agonist – qHTS for Agonists of the Human Mucolipin Transient Receptor Potential 1 (TRPML1); Mucolipin-1 (Homo sapiens), Q9GZU1; TRPML1-expressing cells, Ca2+ dye fluorescence, FDSS; host cell line not named in the record; reference of the full effect not given here; activation, % (test concentration not listed); hit rate 0.12% among 410,000; AID 624414, 2012; in the data active = activation above about 50%; inconclusive = about 30% to 50%; inactive = below about 30%; also: 0% is about no effect; the text of the record puts the active cut at 80%
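Tetracycline-induced TRPML1-DL cells are seeded and incubated overnight before loading with a no-wash Ca2+ dye and quencher. Agonist activity is taken from the 110 s fluorescence read following compound pin-transfer on an FDSS, before EC80 54-4 challenge.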
CtBP-E1A inh – qHTS Assay for Inhibitors of the CtBP/E1A Interaction; CtBP / adenovirus E1A interaction (AlphaScreen); AlphaScreen GST-E1A/His-CtBP binding, 1536-well; active compounds read low; control for the full effect not named in the record; activity change, % (test concentration not listed); hit rate 0.49% among 340,000; AID 651724, 2012; in the data active means activity change below about -65%; inconclusive means about -30% to -65%; inactive means above about -30%; also: % is scaled to controls: 0 for no effect and ±100 for the full control effect
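GST-E1A and His-tagged CtBP (125 nM each as 5X stock) were preincubated with pin-transferred compound for 2 h at 37 °C in the dark, then glutathione donor and nickel acceptor beads were added for 1 h before AlphaScreen reading.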
TRPML1 blocker – qHTS for Inhibitors of the Human Mucolipin Transient Receptor Potential 1 (TRPML1); TRPML1-inducible cells, Ca2+ dye fluorescence, FDSS; active compounds read low; inhibition of EC80 agonist-evoked calcium signal; activity change, negative = inhibition, % (concentration not given with the values); hit rate 0.02% among 390,000; AID 624415, 2012; in the data active means activity change below about -50%; inconclusive means about -30% to -50%; inactive means above about -30%;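 also: stimulus is agonist 54-4 at its EC80 concentration; % is scaled to controls: 0 for no effect and ±100 for the full control effect; the text of the record puts the active cut at -80%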
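Calcium fluorescence in TRPML1-DL cells induced overnight with Tet: a 110 s read after compound pin addition, then a 110 s antagonist read after challenge with 54-4 at 4 uM final (EC80).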
PINK1 expr mod – A Quantitative High throughput Screen to Identify Chemical Modulators of PINK1 Expression; PINK1 immunofluorescence, high-content cytometry, 24 h; Potency, µM (titrated, usually from 76.6 µM), for the others: at the highest dose activation (PINK1 increase), hits mostly activators; hit rate 0.2% among 410,000; AID 624263, 2012; active = well fitted activation curve with a large enough effect; inconclusive = small, poorly fitted or top-dose-only effect; inactive = flat fitted curve, though single readings scatter; cell line not stated here;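 also: potency is read from the fitted curve at half-maximal effect; % of control where 0% means no effect; nearly all actives have a fitted effect of over 65% in size; a mitochondrial uncoupler was the plate control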
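Stable cell line treated 24 h with compounds at 5 concentrations (CCCP controls), then fixed and immunostained for PINK1 plus nuclear and cell stains; PINK1 immunofluorescence quantified by laser-scanning microplate cytometry.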
D2 ag – Beta-Arrestin HTS for Positive Allosteric Modulators of the Human D2 Dopamine Receptor: Agonists | D(2) dopamine receptor (Homo sapiens), P14416 | DiscoveRx PathHunter D2 beta-arrestin, luminescence, 90 min; 100% = 57 uM dopamine signal | activation, % (no concentration beside the values) | hit rate 0.084% among 360,000; in the data active = activation above about 40%; inconclusive = about 15% to 40%; inactive = below about 15%; also: compound concentration not given in the record; the text of the record calls up to 30% inactive
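Agonist mode: compounds alone added to overnight-plated D2 PathHunter cells for 90 min at 37 C, with 57 uM final dopamine (EC100) defining full response. Beta-arrestin recruitment detected by chemiluminescent reagent, read after 1 h at ambient temperature.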
Active calls of the source: *; [ ] = remark or other dose. Hits appear at their usual frequency; overall some 1% were active at least once.

Screening O=C(NCc1ccccn1)c1nc(Cn2ccc([N+](=O)[O-])n2)no1 returned Six1-Eya2 inh -2, TRPML1 agonist -0.3, CtBP-E1A inh -4, TRPML1 blocker 35, PINK1 expr mod 1.0% and D2 ag -2.2.
`COc1nc(Nc2ccc([N+](=O)[O-])cc2)nc(NC2CCCCC2)n1` gave Six1-Eya2 inh -12, TRPML1 agonist 1.3, CtBP-E1A inh -13, TRPML1 blocker 9, PINK1 expr mod 11% and D2 ag 0.2.
Screening Cc1ccc(C(NC(=O)N2CCCC2)C(Cl)(Cl)Cl)cc1F (stereo unspecified) returned Six1-Eya2 inh 0, TRPML1 agonist 2.3, CtBP-E1A inh 6, TRPML1 blocker -5, PINK1 expr mod 3.1% and D2 ag -2.3.
Screening O=C(CCN1C(=O)c2ccncc2C1=O)Nc1ccc2c(c1)OCCO2 returned Six1-Eya2 inh 5, TRPML1 agonist 1.0, CtBP-E1A inh 6, TRPML1 blocker -22, PINK1 expr mod -1.3% and D2 ag 1.4.
For CCn1c(SCC(=O)N2CCCCC2)nnc1-c1ccc(S(=O)(=O)N2CCN(C)CC2)cc1 the results were Six1-Eya2 inh 6, TRPML1 agonist -0.1, CtBP-E1A inh 1, TRPML1 blocker 4, PINK1 expr mod 1.6%[38.3 µM] and D2 ag -2.1.
COc1ccccc1CNC(=O)CN1C(=O)NC2(CCCC2)C1=O was read as Six1-Eya2 inh 19, TRPML1 agonist 1.4, CtBP-E1A inh 1, TRPML1 blocker -22, PINK1 expr mod -0.5% and D2 ag -3.1.
COc1cccc(OC)c1C(=O)Nc1ccc(N2CCCCC2)cc1 was read as Six1-Eya2 inh -5, TRPML1 agonist 1.0, CtBP-E1A inh -6, TRPML1 blocker -2, PINK1 expr mod -0.7% and D2 ag -1.6.
For Cc1cccc(NC(=O)CSc2nc3ccccc3nc2N2CCC(C)CC2)c1 the results were TRPML1 agonist -0.1, TRPML1 blocker 1 and PINK1 expr mod 2.7%.
`CCCNC(=O)Cn1nc(-c2ccc(F)cc2)c2cnc3ccc(F)cc3c21` gave TRPML1 agonist 0.0, TRPML1 blocker -6 and PINK1 expr mod 0.4%.
Screening CC(C)CN(C(=O)CN(C)C(=O)Cc1c(F)cccc1Cl)c1c(N)n(CC(C)C)c(=O)[nH]c1=O returned Six1-Eya2 inh -11, TRPML1 agonist -0.2, CtBP-E1A inh -11, TRPML1 blocker 41, PINK1 expr mod 0.0% and D2 ag -4.2.
Cc1c(NC(=O)Cn2[nH]c(=O)c3ccccc3c2=O)c(=O)n(-c2ccccc2)n1C was read as Six1-Eya2 inh 1, TRPML1 agonist 1.3, CtBP-E1A inh -2, TRPML1 blocker 20, PINK1 expr mod 0.9% and D2 ag -1.9.
`COCCNC(=O)c1c(NC(=O)Cc2coc3cc(C)ccc23)sc2c1CCCC2` gave TRPML1 agonist -0.7, TRPML1 blocker 5 and PINK1 expr mod -1.5%.
For CCOc1ccc(/C=N/NC(=O)c2nnn(-c3nonc3N)c2-c2cccs2)cc1 the results were Six1-Eya2 inh 5, TRPML1 agonist -0.6, CtBP-E1A inh 3, TRPML1 blocker 25, PINK1 expr mod 2.8% and D2 ag 3.2.
Screening O=C(Cn1ccc(NC(=O)OCc2ccccc2)nc1=O)NCCN1CCOCC1 returned Six1-Eya2 inh 0, TRPML1 agonist -0.6, CtBP-E1A inh 10, TRPML1 blocker 4, PINK1 expr mod 0.9% and D2 ag -3.9.
CCCS(=O)(=O)c1nc(S(=O)(=O)c2ccc(C)cc2)c(N(C)Cc2ccccc2)s1 was read as TRPML1 agonist 2.3, TRPML1 blocker 46 and PINK1 expr mod 1.6%.
CC(OC(=O)CCc1nc2ccccc2[nH]c1=O)C(=O)c1ccccc1 (stereo unspecified) was read as Six1-Eya2 inh 7, TRPML1 agonist -0.8, CtBP-E1A inh 7, TRPML1 blocker -6, PINK1 expr mod -2.7% and D2 ag -0.9.
For COc1ccc(N2CCN(CCCn3cnc4c(SC)ncnc43)CC2)cc1 the results were Six1-Eya2 inh -3, CtBP-E1A inh -4, PINK1 expr mod -0.7% and D2 ag -1.9.
COC(=O)C1=C(N)OC2=C(C(=O)CCC2)C1c1cccs1 (stereo unspecified) was read as Six1-Eya2 inh 0, TRPML1 agonist 1.8, CtBP-E1A inh -4, TRPML1 blocker 17, PINK1 expr mod 2.7% and D2 ag -4.0.
O=C(/C=C/c1ccccc1Cl)Nn1cnc2ccccc2c1=O was read as Six1-Eya2 inh 2, TRPML1 agonist 0.1, TRPML1 blocker 15, PINK1 expr mod 2.0% and D2 ag -1.7.
CC(=O)c1ccc(OCCCCCCCOc2ccc(C(C)=O)cc2)cc1 was read as Six1-Eya2 inh 2, TRPML1 agonist 0.1, CtBP-E1A inh -1, TRPML1 blocker 11, PINK1 expr mod 9.6% and D2 ag 7.4.
`CC(/C=C/c1ccccc1)=N/NC(=O)C(O)c1ccccc1` (stereo unspecified) gave Six1-Eya2 inh -2, TRPML1 agonist 0.5, TRPML1 blocker -16, PINK1 expr mod 3.8% and D2 ag -7.3.
Screening Cc1ccc(-c2nnn(CC(=O)N(CC3CCCO3)C(C(=O)NC3CCCC3)c3ccc(O)cc3)n2)o1 (stereo unspecified) returned Six1-Eya2 inh -19, TRPML1 agonist 0.5, CtBP-E1A inh -8, TRPML1 blocker 19, PINK1 expr mod 2.7% and D2 ag 3.6.
Screening CNc1ccccc1C(C)(C)c1cc(-c2cc(C)cc(C)c2)no1 returned Six1-Eya2 inh 3, TRPML1 agonist 1.4, CtBP-E1A inh 2, TRPML1 blocker 3, PINK1 expr mod inconclusive and D2 ag -2.1.
`Cc1ccc(CNC(=O)CCc2c(C)nc3nc(CNC(=O)OC(C)(C)C)nn3c2C)cc1` gave TRPML1 agonist 3.3, TRPML1 blocker -15 and PINK1 expr mod 1.7%.
Screening O=C(ON=C1CCN(S(=O)(=O)c2ccccc2)CC1)c1ccc(F)cc1 returned Six1-Eya2 inh 2, TRPML1 agonist -0.2, CtBP-E1A inh 2, TRPML1 blocker 28, PINK1 expr mod -3.0% and D2 ag -0.8.
Cc1ccc2c(CC(=O)OCc3nc(N)nc(Nc4ccccc4C)n3)coc2c1 was read as Six1-Eya2 inh -11, TRPML1 agonist 0.1, CtBP-E1A inh -1, TRPML1 blocker 2, PINK1 expr mod 7.2% and D2 ag -4.8.
For CCOC(=O)c1c(NC(=O)c2ccc(S(=O)(=O)N3CCCC(C)C3)cc2)sc2c1CCN(C(C)C)C2 (stereo unspecified) the results were TRPML1 agonist 0.3, TRPML1 blocker -3 and PINK1 expr mod inconclusive.
For CCOC(=O)Cn1cnc2c(cnn2-c2ccc(Cl)cc2)c1=O the results were Six1-Eya2 inh 11, TRPML1 agonist -0.3, CtBP-E1A inh -2, TRPML1 blocker 7, PINK1 expr mod -1.1% and D2 ag -0.9.
O=C(COC(=O)C1COc2ccccc2O1)NC(=O)Nc1ccc2c(c1)OCCO2 (stereo unspecified) was read as Six1-Eya2 inh 1, TRPML1 agonist 0.4, CtBP-E1A inh -1, TRPML1 blocker 21, PINK1 expr mod 0.6% and D2 ag -2.2.
CC(NC(=O)C12CC3CC(CC(O)(C3)C1)C2)c1ccc(Cl)cc1Cl (stereo unspecified) was read as Six1-Eya2 inh -3, TRPML1 agonist 0.2, CtBP-E1A inh -1, TRPML1 blocker -1, PINK1 expr mod 6.6% and D2 ag -1.7.

Gathered by group, the entries above with a nitro group on carbon.
Screening O=C(NCc1ccccn1)c1nc(Cn2ccc([N+](=O)[O-])n2)no1 returned Six1-Eya2 inh -2, TRPML1 agonist -0.3, CtBP-E1A inh -4, TRPML1 blocker 35, PINK1 expr mod 1.0% and D2 ag -2.2.
`COc1nc(Nc2ccc([N+](=O)[O-])cc2)nc(NC2CCCCC2)n1` gave Six1-Eya2 inh -12, TRPML1 agonist 1.3, CtBP-E1A inh -13, TRPML1 blocker 9, PINK1 expr mod 11% and D2 ag 0.2.

The results go on.
For CCOC(=O)c1cc(OCC)c2c(ccc3ccccc32)n1 the results were Six1-Eya2 inh 16, TRPML1 agonist 2.4, CtBP-E1A inh -4, TRPML1 blocker 44, PINK1 expr mod -0.8% and D2 ag -4.3.
`Cc1cc(C)c2cc(CN(CCO)Cc3nnnn3Cc3ccccc3)c(=O)[nH]c2c1` gave Six1-Eya2 inh -7, TRPML1 agonist 0.0, CtBP-E1A inh 11, TRPML1 blocker 1, PINK1 expr mod -1.7% and D2 ag -3.4.
CC(C)C1=CC(=Nc2ccc(S(N)(=O)=O)cc2)C=C(C(C)C)C1=O was read as Six1-Eya2 inh -13, TRPML1 agonist 1.9, CtBP-E1A inh -6, TRPML1 blocker 13, PINK1 expr mod 0.5% and D2 ag 8.7.
`O=C(NCC1CCCCC1)c1ccccc1[N+](=O)[O-]` gave Six1-Eya2 inh 20, TRPML1 agonist -0.4, CtBP-E1A inh 10, TRPML1 blocker 2, PINK1 expr mod 4.2% and D2 ag -0.4.
Cc1ccc(NC(=O)CN(C)CC(=O)Nc2ccccc2-c2ccccc2)cc1 was read as Six1-Eya2 inh -12, TRPML1 agonist 3.2, CtBP-E1A inh 24, TRPML1 blocker 22, PINK1 expr mod 17% and D2 ag -3.2.
For Cc1[nH]n2c(=O)c3c(nc2c1-c1cccc2ccccc12)CCC3 the results were Six1-Eya2 inh -7, TRPML1 agonist 0.1, CtBP-E1A inh 3, TRPML1 blocker 23, PINK1 expr mod -0.5% and D2 ag -1.3.
For CCN(CC)CCN(C(=O)C1CCCCC1)c1nc2cc3c(cc2s1)OCO3 the results were Six1-Eya2 inh -24, TRPML1 agonist 0.9, CtBP-E1A inh inconclusive, TRPML1 blocker -1, PINK1 expr mod 26% and D2 ag 6.3.
CCSc1ncc(Cl)c(C(=O)Nc2ccc(S(=O)(=O)N3CCCCC3CC)cc2)n1 (stereo unspecified) was read as TRPML1 agonist inconclusive, TRPML1 blocker -19 and PINK1 expr mod 11%.

Ordered by number of heavy atoms (descending): three of the compounds above.
CCSc1ncc(Cl)c(C(=O)Nc2ccc(S(=O)(=O)N3CCCCC3CC)cc2)n1 (stereo unspecified) was read as TRPML1 agonist inconclusive, TRPML1 blocker -19 and PINK1 expr mod 11%.
For Cc1[nH]n2c(=O)c3c(nc2c1-c1cccc2ccccc12)CCC3 the results were Six1-Eya2 inh -7, TRPML1 agonist 0.1, CtBP-E1A inh 3, TRPML1 blocker 23, PINK1 expr mod -0.5% and D2 ag -1.3.
`O=C(NCC1CCCCC1)c1ccccc1[N+](=O)[O-]` gave Six1-Eya2 inh 20, TRPML1 agonist -0.4, CtBP-E1A inh 10, TRPML1 blocker 2, PINK1 expr mod 4.2% and D2 ag -0.4.
